Source: PubChem (National Center for Advancing Translational Sciences (NCATS))
Cruzain inh Det – qHTS Assay for Promiscuous and Specific Inhibitors of Cruzain (with detergent). purified cruzain, Z-FR-AMC fluorescence, 0.01% Triton. Potency, µM, without a hit: max response, negative = inhibition, usual class: inhibitors. hit rate 0.43% among 200,000; active = well fitted curve in the direction sought with a large enough effect; inconclusive = small, poorly fitted or top-dose-only effect, or another doubt; inactive = no such curve, though single readings can be large; an effect the other way counts as inactive or inconclusive;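 note: plate controls were neutral wells for no effect and buffer without enzyme for full effect; nearly all actives have a fitted effect of over 40% in size; top concentration of the series not given in the record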
Target sequence (P25779 123-467 limits assumed): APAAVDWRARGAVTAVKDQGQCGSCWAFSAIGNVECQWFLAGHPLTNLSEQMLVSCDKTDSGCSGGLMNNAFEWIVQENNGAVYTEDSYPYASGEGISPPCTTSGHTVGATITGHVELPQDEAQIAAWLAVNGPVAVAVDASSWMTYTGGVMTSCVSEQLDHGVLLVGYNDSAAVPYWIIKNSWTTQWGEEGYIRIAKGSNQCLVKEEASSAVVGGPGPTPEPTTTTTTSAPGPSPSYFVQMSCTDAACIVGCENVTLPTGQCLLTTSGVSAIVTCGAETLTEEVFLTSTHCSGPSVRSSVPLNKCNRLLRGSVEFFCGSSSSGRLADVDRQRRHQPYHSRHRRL
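Detergent-containing arm of a paired screen for aggregation-based inhibition: 0.01% Triton X-100 present. Cruzain at 1.5 nM cleaved 2 uM Z-FR-AMC at pH 5.5 with 5 mM DTT; AMC fluorescence gain over 60 s measured activity.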
MARV entry inh – qHTS for inhibitors of binding or entry into cells for Marburg Virus; Marburg virus pseudotyped entry inhibition, cell reporter; control for the full effect not named in the record; about a third of the inactives were read at about 46 µM; Potency, µM (highest dose often 37.8 µM), inactives show at the highest dose activity change, negative = inhibition, hits mostly inhibitors; hit rate 1.8% among 300,000; active = well fitted inhibition curve with a large enough effect; inconclusive = small, poorly fitted or top-dose-only effect, or effect the other way; inactive = flat fitted curve, though single readings scatter; tested in HEK293 cells; about a fifth of its hits are not listed in these tables; note: % is set by controls: 0 for no effect and ±100 for the full control effect; luciferase read-out
LASV entry inh – qHTS for Inhibitors of binding or entry into cells for Lassa Virus; Lassa virus pseudotype entry inhibition, cell reporter; control for the full effect not named in the record; Potency, µM (highest dose often 37.9 µM), inactives show at the top dose activity change, negative = inhibition, hits mostly inhibitors; hit rate 1.2% among 300,000; AID 540256, 2011; active means well fitted inhibition curve with a large enough effect; inconclusive means small, poorly fitted or top-dose-only effect, or effect the other way; inactive means flat fitted curve, though single readings scatter; tested in HEK293 cells; note: % is set by controls: 0 for no effect and ±100 for the full control effect; nearly all actives have a fitted effect of over 50% in size; luciferase read-out
Cruzain noTriton – qHTS Assay for Promiscuous and Specific Inhibitors of Cruzain (without detergent); purified cruzain, Z-FR-AMC fluorescence, no detergent; Cruzipain (Trypanosoma cruzi), P25779; hit rate 2.3% among 200,000; Potency, µM, for inactives: max response, negative = inhibition, hits mostly inhibitors; active = well fitted curve in the direction sought with a large enough effect; inconclusive = small, poorly fitted or top-dose-only effect, or another doubt; inactive = no such curve, though single readings can be large; an effect the other way counts as inactive or inconclusive;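 note: plate controls were enzyme without inhibitor for no effect and buffer without enzyme for full effect; nearly all actives have a fitted effect of over 40% in size; top concentration of the series not given in the record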
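Detergent-free condition (0.00005% Triton X-100) in acetate buffer pH 5.5 with DTT. 1.5 nM enzyme and compound were pre-mixed 15 min, then 2 uM Z-FR-AMC substrate added; reaction progress from fluorescence change between first and third reads (60 s).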
NS1 function inh – qHTS Assay for Inhibitors of Influenza NS1 Protein Function | S. cerevisiae slowed by influenza A NS1, growth recovery by OD600 | Potency, µM (series often up to 46.1 µM), without a hit: at the highest dose activity, positive = more growth | hit rate 0.4% among 270,000; note: actives are rising curves; nearly all actives have a fitted effect of over 50% in size
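A cell-based growth assay was used: compounds that relieve NS1-induced slow growth of budding yeast raise OD600. Assay medium was yeast nitrogen base with ammonium sulphate and -URA supplement, pH 6.0, with 2% galactose.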
RE007 growth inh – qHTS Assay for Inhibitors of the HIV-1 protein Vpr; S. pombe RE007 Vpr strain, BacTiter-Glo ATP luminescence, 24 h; control for the full effect not named in the record; Potency, µM (top dose mostly 92.2 µM), for the others: at the top dose activity change, negative = less growth; hit rate 0.21% among 360,000; active = well fitted falling curve with a large enough effect; inconclusive = small, poorly fitted or top-dose-only effect; inactive = no such curve, though single readings can be large or run the other way;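 note: % is set by controls: 0 for no effect and ±100 for the full control effect; nearly all actives have a fitted effect of over 50% in size; the assay follows cell death caused by Vpr and the record does not say whether a fall means rescue or toxicity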
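Fission yeast RE007 carrying one integrated HIV-1 vpr copy, seeded at OD 0.01 in PMG+AL medium with 23 nL pinned compound. Grown 24 h at 30 degrees; viability read by BacTiter-Glo luminescence after 5 min.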
SARS PLP yeast – qHTS of Yeast-based Assay for SARS-CoV PLP | hit rate 0.19% among 330,000 | S. cerevisiae expressing SARS-CoV PLpro, growth rescue; control for the full effect not named in the record | AID 485353, 2010 | Potency, µM (doses to about 32.9 µM), without a hit: top-dose activity, positive = growth rescue; note: 0% is about no effect; nearly all actives have a fitted effect of over 55% in size; growth read by luminescence after 48 h
2A StopGo – High Throughput Screening for Foot and Mouth Disease Virus Antivirals | human cells with a luciferase reporter of 2A StopGo recoding; control for the full effect not named in the record | Potency, µM (top dose mostly 57.9 µM), for inactives: at the highest dose signal change, negative = less light | hit rate 1.2% among 410,000; active = well fitted falling curve with a large enough effect; inconclusive = small, poorly fitted or top-dose-only effect; inactive = no such curve, though single readings can be large or run the other way; tested in HEK293T cells; note: % is set by controls: 0 for no effect and ±100 for the full control effect; nearly all actives have a fitted effect of over 45% in size; luciferase light after 4 h
* hit, by the source's call; ? = inconclusive; . = no result given; & = joins results of further samples; [ ] = remark or other dose. Unless noted, calls come from the whole dose curve; as a rule, active means well fitted rising curve with a large enough effect; inconclusive means small, poorly fitted or top-dose-only effect; inactive means no such curve, though single readings can be large or run the other way. Potency is the fitted concentration of half-maximal effect.

SMILES	Cruzain inh Det	MARV entry inh	LASV entry inh	Cruzain noTriton	NS1 function inh	RE007 growth inh	SARS PLP yeast	2A StopGo
Cc1cnc(C(=O)OCc2nc3ccsc3c(=O)[nH]2)cn1	.	-1.3%	0.5%	.	.	11.1%	0.3%	0.9%
COc1ccc(Oc2coc3cc(OCC(=O)N4CCCCC4)ccc3c2=O)cc1	-1.6%	-17.0%	?	-5.3%	2.7%	.	13.8%	.
Cc1ccc(C)c2[nH]c(=O)c(CCNC(=O)C(C)C)cc12	0.6%	.	.	-8.5%	5.4%	.	5.0%	.
CN(c1ccccc1)S(=O)(=O)c1cccc(NC(=O)C2CCCO2)c1 (stereo not given)	.	?	?	.	.	26.3%	9.1%	-5.3%
COc1ccc(NC(=O)CCn2nc(C)cc2C)cc1	1.7%	28.2%	3.3%	-10.3%	-5.9%	9.6%	15.4%	-11.7%
Cc1ccc(Cl)cc1NS(=O)(=O)c1c(C)[nH]c(=O)[nH]c1=O	2.6%	-4.8%	1.5%	-8.6%	-1.8%	-11.7%	-0.6%	8.1%
CC(Oc1cc2oc(=O)c3c(c2cc1Cl)CCC3)C(=O)NCCN1CCOCC1 (stereo not given)	.	.	.	.	16.2%	-2.8%	-22.7%	-13.3%
O=S(=O)(c1ccc(Br)cc1)c1nnn2c1nc(NCCc1ccccc1)c1sccc12	-0.2%	.	?	-0.2%	.	.	.	-33.1%
COc1ccc(CNCC(O)(c2ccc(Cl)cc2)c2ccc(Cl)cc2)cc1OC	-0.5%	?	?	-15.4%	-6.8%	18.1%	2.4%	?
CCOC(=O)C1(CCOC)CCN(C(=O)Cc2ccc3ccccc3c2)CC1	.	10µM*	?	.	16.6%	19.0%	1.6%	-4.3%
COc1ccc(NC(=O)COC(=O)CNS(=O)(=O)c2ccc(C)cc2)c(OC)c1	-19.6%	?	7.8%	-7.7%	-19.1%	-11.7%	13.1%	-5.3%
N#C/C(=C\Nc1ccc(F)c(Cl)c1)C(=O)C1CC1	.	.	.	.	0.2%	-6.1%	-3.1%	-18.8%
CCOC(=O)Cn1c(=O)oc2cc(S(=O)(=O)Nc3cc(OC)cc(OC)c3)ccc21	-0.8%	-0.6%[46.1 µM]	1.2%[46.1 µM]	-13.6%	.	.	.	-21.2%
Cn1c(CSCc2ccccc2Cl)nnc1SCC(=O)Nc1nccs1	-2.8%	?	-24.1%	-2.6%	-4.4%	18.4%	-8.0%	?
NC(=O)c1c(NC(=O)Cc2cccs2)sc2c1CCC2	0.5%	2.5%	-12.5%	-9.4%	0.6%	-0.2%	-0.3%	1.3%
CCOC(=O)C1CCN(C(=O)CCS(=O)(=O)c2ccc3c(c2)CCN3C(C)=O)CC1	2.3%	?	-2.5%	0.7%	1.0%	-5.3%	-6.2%	-6.8%
COc1ccc(NS(=O)(=O)c2ccc3oc(SC)nc3c2)cc1	.	-16.4%	-24.6%	.	-5.0%	-6.8%	0.6%	14.4%
Cc1ccc(NC(=O)c2snc3c(=O)[nH]cnc23)cc1C	4.3%	2.2%	.	-10.0%	5.4%	.	-8.4%	.
CC1(C)CC(N(Cc2ccco2)C(=O)Cc2ccccc2)CCO1 (stereo not given)	8.4%	2.5%	0.0%	-0.3%	8.4%	-3.9%	-0.8%	-20.4%
Cc1ccc(C)c(NS(=O)(=O)c2ccc3oc(=O)c4ncn(C)c4c3c2)c1	-1.5%	.	10.5%[46.1 µM]	8.7%	.	.	.	?
CCn1cc(CNC(=O)CCc2ccc(OC)cc2)cn1	6.0%	-13.2%	13.7%	-6.5%	-0.2%	12.6%	-1.7%	5.9%
COC(=O)C1=C(C)NC2=C(C(=O)C(C(=O)OC)C(c3ccc(OC)cc3)C2)C1c1ccccn1 (stereo not given)	-2.3%	7.4%	24.3%	8.6%	-4.3%	-8.1%	3.4%	-1.0%
CC(=O)c1ccc(NC(=O)CCNS(=O)(=O)c2cc(Br)cnc2N)cc1	.	1.3%[46.1 µM]	21.7%[46.1 µM]	.	-1.9%	0.7%	0.2%	42.5%[activator]
COc1ccc(C(=O)CC2(O)C(=O)N(Cc3ccccc3Cl)c3ccccc32)cc1 (stereo not given)	-7.1%	-2.3%[46.1 µM]	?	-28.0%	.	.	.	-17.3%
CCN(CC)CCN(C(=O)c1ccc2ccccc2c1)c1nc2ccc(OC)cc2s1	.	.	.	.	-33.0%	0.0%	-10.0%	-17.0%
Cc1cc(N2CCN(C)CC2)ccc1NC(=O)c1cccc(S(=O)(=O)N2CCc3ccccc3C2)c1	.	?	?	.	-0.3%	0.3%	-4.9%	-11.1%
NC1CCN(O)C1=O (stereo not given)	4.0%	?	?	7.1%	0.0%	.	.	.
O=C(CNCc1ccccc1Cl)NCc1ccco1	.	-14.1%	6.2%[46.1 µM]	.	1.3%	0.8%	1.5%	0.5%
O=C(CCC(=O)Nc1ccccc1)NNC(=O)C(c1ccccc1)c1ccccc1	8.3%	-1.5%	?	-76.1%	11.4%	-2.9%	-7.6%	-16.3%
CCOc1ccc(CCNC(=O)CCn2c(=O)c3cccn3c3ccc(F)cc32)cc1	-5.1%	.	?	7.7%	.	.	.	-6.1%
CC(=O)OCC(COC(C)=O)OC(C)=O	2.1%&4.0%	.	.	0.0%&12.3%	.	9.6%[18.4 µM]	.	-5.6%&6.9%
O=C(O)CCC(=O)NNC(=O)c1ccc(-c2ccccc2)cc1	-2.4%	6.5%	10.4%	7.5%	5.7%	-8.3%	-8.3%	-5.2%
CC(C)OC(=O)Cn1c(=O)sc2ccccc21	0.3%	-3.3%	-18.1%	13.2%	-4.8%	-6.3%	8.8%	5.1%
COc1cc(/C=C/c2nnc3c4ccccc4ncn23)cc(OC)c1OC	-19.1%	?	?	?	-0.2%	-15.2%	-7.2%	0.0%
Cc1ccc(-n2ncc(C(=O)O)c2C2CCN(C(=O)OC(C)(C)C)CC2)cc1	0.0%	23.9%	?	-12.9%	17.4%	10.8%	-2.3%	15.4%
CCC(C)NC(=O)c1nn(C)c(=O)c2ccccc12 (stereo not given)	.	10.9%[46.1 µM]	3.4%	.	0.0%	4.2%	2.3%	-4.5%
COc1ccc([N+](=O)[O-])cc1C1NN=C(c2cccc3ccccc23)S1 (stereo not given)	-0.1%	18.4%	1.0%	7.94µM*	1.8%	3.0%	-2.0%	-8.1%
COc1ccccc1OCCCn1c(C)c(C#N)c2ccccc21	1.7%	?	?	1.0%	-50.5%	-23.1%	5.2%	?
CNC(=O)C1CCC(Cn2c(=O)c3sccc3n(CC(=O)NCc3ccc(C)cc3)c2=O)CC1 (stereo not given)	-1.7%	.	-7.6%[46.1 µM]	-1.4%	.	.	.	-6.5%
COc1ccccc1Oc1ccc(NC(=O)c2ccccc2C)cc1	.	.	.	.	-0.9%	-0.9%	-0.5%	36.4%[activator]
CCn1c2ccccc2c2cc(CNCc3ccc(OC)cc3OC)ccc21	.	.	.	.	-5.6%	2.7%	-1.4%	-60.5%
CCN1C(=NCCCOC(C)C)N[C@@H](c2ccccc2)[C@H](C(=O)OC)[C@H]1C	.	0.1%[14.2 µM]	.	.	1.7%	-6.5%	-13.8%&6.9%	-11.0%
O=c1[nH]c(Nc2ccc3c(c2)OCCO3)nnc1Cc1ccc(Cl)cc1	.	-5.4%[46.1 µM]	22.5%[46.1 µM]	.	.	10.2%	2.8%	-6.4%
CC(C)CCn1cnc2c1c(=O)[nH]c(=O)n2Cc1ccccc1	.	.	.	.	1.1%	27.0%	0.1%	-12.1%
CCOc1cc(CNCC(O)c2ccccc2)cc(Cl)c1OC (stereo not given)	.	.	.	.	-1.8%	-4.7%	0.2%	-18.6%
Cc1ccccc1NC(=O)c1cccc(NC(=O)c2ccccc2C(=O)O)c1	.	1.6%[46.1 µM]	13.2%	.	.	19.1%	.	6.9%
CCN(CC)CCN1C(=O)C(O)=C(C(=O)c2cccs2)C1c1ccc(C)o1 (stereo not given)	2.3%	-3.3%	3.9%	-8.9%	-2.9%	0.0%	-1.4%	55.9%[activator]
CCN1CCN(CCCNC(=O)c2cn(CCOC)c(=O)c3c2c2ccccc2n3C)CC1	-1.3%	3.2%	6.4%	-3.0%	3.5%	-9.2%	5.9%	-10.2%
Cc1ccc(C)c(N2C(=O)CC(Cc3ccccc3)C2=O)c1 (stereo not given)	.	-4.4%[46.1 µM]	13.2%[46.1 µM]	.	-1.8%	-6.0%	-1.1%	7.3%
Cc1cc(C)c[n+](-c2[nH]c(=O)sc2/C=N/N=C(\[O-])c2cccnc2)c1	.	.	.	.	-12.4%	0.9%	-5.7%	-13.8%
COc1ccc(OC)c(NC(=O)CCC(=O)Nc2nnc(C(F)(F)F)s2)c1	4.4%	1.7%	15.2%	?	3.5%	0.8%	3.6%	-21.3%
COc1ccccc1Oc1ccc(N2CC(C(=O)OCC(=O)c3ccccc3)CC2=O)cc1 (stereo not given)	.	-4.5%[46.1 µM]	0.4%[46.1 µM]	.	-22.1%	-10.8%	-2.5%	12.4%

3 of these compounds in a different format.
> Cc1ccc(C)c(N2C(=O)CC(Cc3ccccc3)C2=O)c1 (stereo not given)
  Cruzain inh Det: . | MARV entry inh: -4.4%[46.1 µM] | LASV entry inh: 13.2%[46.1 µM] | Cruzain noTriton: . | NS1 function inh: -1.8% | RE007 growth inh: -6.0% | SARS PLP yeast: -1.1% | 2A StopGo: 7.3%

> Cc1cc(C)c[n+](-c2[nH]c(=O)sc2/C=N/N=C(\[O-])c2cccnc2)c1
  Cruzain inh Det: . | MARV entry inh: . | LASV entry inh: . | Cruzain noTriton: . | NS1 function inh: -12.4% | RE007 growth inh: 0.9% | SARS PLP yeast: -5.7% | 2A StopGo: -13.8%

> COc1ccc(OC)c(NC(=O)CCC(=O)Nc2nnc(C(F)(F)F)s2)c1
  Cruzain inh Det: 4.4% | MARV entry inh: 1.7% | LASV entry inh: 15.2% | Cruzain noTriton: ? | NS1 function inh: 3.5% | RE007 growth inh: 0.8% | SARS PLP yeast: 3.6% | 2A StopGo: -21.3%
